Assay outcomes deposited in PubChem by several laboratories.
FGF22 binding: binders of human FGF22 protein, primary screen, FGF22 synaptogenesis inhibitor project, biophysical, thermal shift, single point; AID 651658, 2012; Fibroblast growth factor 22 (Homo sapiens), Q9HCT0; recombinant FGF22 thermal shift, SYPRO orange fluorescence; percent of sucrose octasulfate shift, DMSO zero; calls only at 9.99 µM; actives 1.5% (n = 340,000);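 active = melting point raised past a set limit in the mean and every replicate; inconclusive = no clear call; three in four hits are not shown here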
Target sequence (Q9HCT0 whole entry, looked up): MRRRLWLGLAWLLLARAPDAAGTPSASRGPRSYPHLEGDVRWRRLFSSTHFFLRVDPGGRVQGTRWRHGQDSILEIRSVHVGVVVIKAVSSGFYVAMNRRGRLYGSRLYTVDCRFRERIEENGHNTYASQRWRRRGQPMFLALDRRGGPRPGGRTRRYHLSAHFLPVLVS
LANA-H2B inh: blockers of LANA interaction with H2A/H2B – biochemical, FP readout, HTS, primary screen. cell-free LANA-H2A/H2B peptide, fluorescence polarization. inhibition, % (test concentration not listed). AID 2629, 2010. actives 0.6% (n = 320,000); in the data active = inhibition mostly above about 10%, no sharp cut-off; inactive = mostly below about 6.7%;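 also: stock transfer was 7.5 nL into about 10 µL; 0% = median of vehicle wells and 100% = median of positive control wells; one replicate is shown; the record names a cut of 25% in any replicate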
B2AR ag: beta2AR agonists driving receptor internalization, primary screen, cell-based, FAP fluorogen, flow cytometry. Am2.2-beta2AR cells; reference of the scale not given here. actives 0.43% (n = 340,000). AID 504454, 2011. response, % (test concentration not listed);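 active = response above a set limit, near 3 SD of response in nonfluorescent compounds, cut at about 42% in these data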;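 also: stock transfer was 100 nL into about 11 µL; a reference agonist was the positive control; negative values mostly stem from fluorescent compounds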
ALR H2O2 inh: inhibitors of human ALR sulfhydryl oxidase, primary screen, biochemical, H2O2 detection, HRP-luminol luminescence, single point. inhibition, % (no concentration beside the values). actives 3.8% (n = 290,000). purified ALR, DTT oxidation. AID 485317, 2010. FAD-linked sulfhydryl oxidase ALR (Homo sapiens), P55789;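 active = mean and each replicate at 75% or more; inconclusive = only one of the two met; inactive = neither met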;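 also: stock transfer was 7.5 nL into about 7.5 µL; 0% = neutral wells and 100% = wells with inactivated enzyme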
Ecoli growth: E. coli growth inhibition, primary screen, OD600 | Escherichia coli growth, 23 h; stronger effect = lower value | OD600 absorbance (test concentration not listed) | actives 0.21% (n = 330,000) | AID 1053175, 2014;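 active = OD600 absorbance below the run mean of sample wells minus 3.6 SD, in any replicate, cut at about 0.56 in these data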;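 also: stock transfer was 300 nL into about 60 µL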
HNF4A DNA FP: change in binding of human HNF4A to DNA, primary screen, biochemical, fluorescence polarization, FITC-DNA | Hepatocyte nuclear factor 4-alpha (Homo sapiens), P41235 | 1 h | activity change, % at 10 µM | actives 0.3% (n = 360,000); in the data active = activity change above about 30%, passing the limit was not always enough;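 also: controls were the assay level and a saturating level of protein; the project sought stronger binding though the title names inhibitors; some compounds called inactive have numbers as strong as hits; positive values seem to mean higher polarization but the record does not say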
Target sequence (P41235 whole entry, looked up): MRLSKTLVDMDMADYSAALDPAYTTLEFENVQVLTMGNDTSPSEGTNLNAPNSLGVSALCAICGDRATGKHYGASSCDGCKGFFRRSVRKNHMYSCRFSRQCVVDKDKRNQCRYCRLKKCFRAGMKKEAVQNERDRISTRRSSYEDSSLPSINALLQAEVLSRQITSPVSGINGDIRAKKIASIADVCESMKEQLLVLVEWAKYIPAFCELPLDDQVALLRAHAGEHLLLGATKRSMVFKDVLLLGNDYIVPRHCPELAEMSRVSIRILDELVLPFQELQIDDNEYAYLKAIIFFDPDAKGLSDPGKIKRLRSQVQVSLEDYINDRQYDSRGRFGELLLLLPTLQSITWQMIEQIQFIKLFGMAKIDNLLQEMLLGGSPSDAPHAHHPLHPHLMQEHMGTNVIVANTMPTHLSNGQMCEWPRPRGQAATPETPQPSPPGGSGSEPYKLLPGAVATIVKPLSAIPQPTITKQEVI
UCH37 inh: inhibitors of human UCH37 deubiquitinase, primary screen, biochemical, Ub-AMC cleavage, fluorescence; Ubiquitin carboxyl-terminal hydrolase isozyme L5 (Homo sapiens), Q9Y5K5; purified proteasome/UCH37; inhibition, % (no concentration beside the values); actives 0.33% (n = 330,000);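 active = mean of two replicates above 20%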;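 also: 0% = compound-free wells with enzyme and 100% = wells lacking proteasome; stock transfer was 100 nL into about 20 µL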
Target sequence (Q9Y5K5 whole entry, looked up): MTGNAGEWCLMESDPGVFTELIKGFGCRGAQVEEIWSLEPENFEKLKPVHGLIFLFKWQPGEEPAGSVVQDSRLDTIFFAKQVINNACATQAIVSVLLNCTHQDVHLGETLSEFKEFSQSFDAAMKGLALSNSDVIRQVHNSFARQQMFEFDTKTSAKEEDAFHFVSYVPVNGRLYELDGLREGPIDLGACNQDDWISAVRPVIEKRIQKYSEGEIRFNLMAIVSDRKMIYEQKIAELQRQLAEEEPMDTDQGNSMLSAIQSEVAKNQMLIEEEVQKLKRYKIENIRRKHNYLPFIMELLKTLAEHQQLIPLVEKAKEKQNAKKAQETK
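Assay system: Proteasome-bound UCH37. Buffer or medium: pH 7.4 Tris-HCl (50 mM) with ovalbumin, ATP-MgCl2, DTT. Incubation: 30 min preincubation with enzyme, 25 min cleavage at room temperature. Measured by: fluorescence, ex 355 nm, em 460 nm. Read-out basis: percent inhibition. Control set: wells without proteasome as full block, compound-free enzyme plus substrate as uninhibited.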
Numbers without * were called inactive; i = inactive; ? = inconclusive; . = no result given; + = active, no number.

Values in the order: FGF22 binding | LANA-H2B inh | B2AR ag | ALR H2O2 inh | Ecoli growth | HNF4A DNA FP | UCH37 inh
C#CCOCCOCCOCCNc1nc(N2CCN(C(=O)[C@H](CCCCN)n3cc(CN)nn3)CC2)nc(N2CCN(C(=O)[C@H](CCCCN)n3cc([C@@H](N)CC(N)=O)nn3)CC2)n1
→ i | . | -1 | . | . | 14 | .
Cc1ccc(NC(=O)Cn2c(CCC(=O)O)ccc2-c2ccc(Cl)cc2)cc1
→ i | 1.4 | 1 | 8 | 0.66 | 3.0 | -5.5
Cc1cc(C)nc(OC(C(=O)O)C(OCCC(C)C)(c2ccccc2)c2ccccc2)n1 (stereo unspecified)
→ . | 7.3 | 5 | 70 | 0.71 | -1.4 | 1.8
CC1CCC(N2CCN(c3ncccn3)CC2)C1 (stereo unspecified)
→ . | 3.4 | 1 | -13 | 0.69 | 0.5 | -1.2
COc1cc(/C=N/NC(=O)c2ccccn2)ccc1OC(=O)c1ccc(Br)cc1
→ i | 0.4 | 15 | -5 | . | -3.5 | .
Cc1cccc(C(CC(=O)N2CCCC2)c2ccccc2)c1O (stereo unspecified)
→ . | -2.2 | -9 | 16 | 0.72 | 1.7 | 3.2
CCn1c(SCC(=O)NC2CCCC2)nnc1C(C)C
→ i | 4.8 | -2 | 2 | 0.67 | -3.2 | 2.0
CCOC(=O)c1ccc(N=C2C(=S)N(c3ccc(C(=O)OCC)cc3)C(=N)N2/N=C/c2ccccc2)cc1
→ . | 2.7 | 18 | 11 | . | -0.7 | .
Cc1cc(C)c(S(=O)(=O)N2CCN(C(=O)c3ccc(-n4nc(C)c(Cl)c4C)cc3)CC2)c(C)c1
→ i | . | 2 | . | 0.73 | -0.3 | 2.9
COC(CNC(=O)Cn1nc(Cc2ccncc2)c2ccccc2c1=O)OC
→ i | 2.1 | -3 | 1 | 0.64 | 2.5 | 0.1
COc1cc(C2NC(=O)NC(C)=C2C(C)=O)cc(OC)c1OC (stereo unspecified)
→ i | -0.7 | 11 | -4 | 0.72 | -0.1 | 3.6
Cc1ccc(Sc2ncccc2C(=O)N(C)Cc2cccs2)c(C)c1
→ i | 0.3 | 5 | -8 | 0.7 | -0.9 | 2.5
CCOc1ccc(C(=O)Nc2ccccc2C(=O)O)cc1
→ i | 0.5 | 3 | 3 | 0.69 | -0.8 | 5.2
COc1ccc(S(=O)(=O)N2CCC(C(=O)NCc3cccc(OC)c3)CC2)cc1
→ . | 2.0 | 11 | -13 | 0.78 | 0.9 | 3.4
COCCn1nnnc1C(c1ccc(C(F)(F)F)cc1)N1CCOCC1 (stereo unspecified)
→ . | -1.9 | -3 | -10 | 0.73 | 0.5 | 0.7
Cc1ccc(-n2nnnc2SCC(=O)Nc2cccnc2Cl)cc1
→ . | 2.2 | -7 | -6 | 0.68 | -0.6 | 0.8
C(=N\Nc1ccc2nncn2n1)/c1ccccn1
→ i | 0.3 | -7 | 31 | . | 8.6 | .
COc1ccc(S(=O)(=O)Nc2cc(S(=O)(=O)N3CCOCC3)ccc2OC)cc1
→ i | -9.4 | 1 | -10 | 0.71 | -1.1 | 5.6
Cc1ccc(CN2C(=O)CCC2C(=O)NC2CCCC2)cc1 (stereo unspecified)
→ . | -4.7 | 1 | -1 | 0.77 | -2.0 | -5.2
COc1cccc(-c2c(-c3cc(OC)cc(OC)c3)n(C)c3ccc(-c4cnc(N5CCOCC5)nc4)cc23)c1
→ i | 2.0 | 5 | 3 | 0.74 | -2.0 | -13
Cc1ccccc1N/N=C/c1sc(=O)n(Cc2cccc(C(=O)O)c2)c1Cl
→ i | 3.3 | 3 | ? | . | -1.6 | .
CCOCCCn1c(=NC(=O)c2cccs2)c(C#N)cc2c(=O)n3ccccc3nc21
→ . | 35* | -8 | . | 0.67 | 3.6 | -76
COc1ccc(-c2ccccc2NC(=O)C2CCCN(Cc3ccco3)C2)cc1 (stereo unspecified)
→ i | -1.7 | -3 | 2 | 0.69 | 3.1 | -0.1
Cc1c(Cl)cccc1NC(=O)CCC(=O)c1cccs1
→ i | 4.7 | 1 | . | 0.61 | 1.6 | 1.1
COc1cccc(C(=O)NC2CC3CCCC(C2)N3Cc2ccc(C)cc2)c1 (stereo unspecified)
→ i | 0.5 | -10 | -10 | 0.71 | 4.1 | 2.9
O=C(O)CCSc1nc2ccc(Br)cc2[nH]1
→ . | 6.8 | -1 | -5 | 0.8 | -2.6 | 2.9
CCc1nnc(NS(=O)(=O)c2ccc(NC(=O)C(c3ccccc3)c3ccccc3)cc2)s1
→ + | -6.1 | 9 | -1 | 0.64 | 3.8 | -1.7
COc1ccc(OC)c(NC(=O)C(=O)/C=C(\O)c2cc(OC)ccc2OC)c1
→ . | 0.7 | -1 | -19 | . | -3.7 | .
NC(Cc1ccccc1)C(=O)N1CCCCC1 (stereo unspecified)
→ i | -2.1 | -6 | 0 | 0.69 | 0.7 | 0.7
COc1ccc(NC(=O)CC(C(=O)O)N2CCCCC2)cc1 (stereo unspecified)
→ . | -0.6 | -3 | -4 | 0.68 | -2.8 | -1.9
COC(=O)c1ccc(COc2ncnc3ccccc23)o1
→ i | -9.4 | -16 | 1 | 0.7 | -3.4 | 2.8
COc1ccc(C(=O)Nc2ccc(S(=O)(=O)Nc3nccc(C)n3)cc2)cc1[N+](=O)[O-]
→ i | -4.4 | -2 | -17 | 0.68 | 3.2 | 1.5
COc1ccc(-c2cc(C(F)(F)F)n3nc(C(=O)O)cc3n2)cc1OC
→ . | -0.6 | 52* | . | 0.76 | -0.3 | 13
O=C(c1cc2cc(Cl)ccc2oc1=O)N1CCN(c2ccccn2)CC1
→ i | -0.1 | -4 | . | 0.66 | 1.3 | 5.1
CN(C)c1ccc(N=Nc2ccc3ncccc3c2)cc1
→ i | . | 4 | . | 0.69 | 11 | 7.9
O=C(c1ccc(S(=O)(=O)N2CCCC2)cc1)N1CCN(S(=O)(=O)c2cccc(F)c2)CC1
→ i | . | 2 | . | 0.65 | -1.4 | 5.7
Cc1[nH]c(C)c(S(=O)(=O)N2CCCCC2)c1C(=O)N1CCCCC1
→ i | -1.9 | -4 | -3 | 0.71 | 0.9 | -0.3
CC1CCCC(NC(=O)C2CCC(CNc3c(N4CCCCC4)c(=O)c3=O)CC2)C1C (stereo unspecified)
→ i | 4.4 | 5 | . | 0.69 | -1.1 | 1.7
COc1ccnc(Oc2ccc(Cl)cc2)c1C#N
→ i | -1.1 | -3 | 3 | 0.68 | 2.3 | 4.2
O=C(CCn1c(=S)oc2ccccc21)N1CCCCC1
→ i | 8.0 | -29 | -6 | 0.71 | -1.5 | 1.4
CCCCn1c(=NC(=O)c2cccnc2)c(C#N)cc2c(=O)n3cccc(C)c3nc21
→ . | 5.6 | 12 | 1 | 0.67 | -1.4 | i
COc1cc(OC)cc(C(=O)NCC(=O)NC(C)CCc2ccccc2)c1 (stereo unspecified)
→ i | 1.5 | -12 | -6 | 0.71 | 3.1 | 0.2
CCCn1c(C)nc2cc(Cl)c(N3CCN(c4nc(-c5ccc(C)cc5)cs4)CC3)cc21
→ i | 2.7 | 0 | 0 | 0.72 | 3.9 | 5.4
Cc1ccc(C2=NN(CC(=O)NCc3cccnc3)C(=O)CC2)cc1
→ . | 2.0 | . | -6 | 0.71 | . | 4.6
O=C(c1ccc2c(c1)OCO2)N1CCC(Cc2ccccc2)CC1
→ i | -0.6 | 1 | -6 | 0.69 | -6.0 | 5.0
CN(C)/C=N/C(=S)Nc1cc(Cl)cc(Cl)c1
→ i | -3.8 | 0 | -3 | . | 0.0 | .
Cc1ccc(S(=O)(=O)N/N=C\c2ccc3c(c2)OCO3)cc1
→ i | -4.3 | 4 | . | . | 2.1 | .
FC(F)(F)c1nc(SCc2ccccc2)n[nH]1
→ i | -3.5 | -6 | -1 | 0.65 | -3.8 | 7.3
CCOc1ccc(NC(=O)CSc2nnnn2C2CC2)cc1S(=O)(=O)N1CCCC1
→ i | 1.3 | -3 | -2 | 0.66 | -2.5 | 0.4
CC(C)[C@H](NC(=O)c1ccccc1F)C(=O)OCCN1C(=O)c2ccccc2C1=O
→ i | 2.5 | 1 | -2 | 0.63 | -1.1 | 1.6
COC(=O)Nc1ccc(S(=O)(=O)Nc2cnc3ccccc3n2)cc1
→ i | 2.4 | -1 | -11 | 0.7 | 4.8 | -9.4
Cc1noc(C)c1CS(=O)(=O)Cc1ccc(Cl)cc1
→ i | -0.7 | 4 | 2 | 0.68 | 2.0 | 3.2
COC(=O)c1ccccc1Nc1ccccc1
→ . | 4.0 | 2 | 9 | 0.72 | -1.0 | 2.0
COc1ccc(NC(=O)c2ccco2)cc1NC(=O)c1ccccc1[N+](=O)[O-]
→ i | 9.0 | -8 | 2 | 0.69 | 0.4 | 2.0
Cc1cccc(N(C(=O)CNC(=O)c2cccs2)C(C(=O)NC2CCCC2)c2cccnc2)c1 (stereo unspecified)
→ . | 4.1 | 3 | -9 | 0.68 | 3.0 | 1.4
CCN1CCN(C(=S)NC(=O)c2cccc(Br)c2)CC1
→ i | -3.4 | 6 | -5 | 0.69 | 2.9 | 1.8
CCOC(=O)N1CCN(C(=O)CN(C2CCCCC2)S(=O)(=O)c2ccc(Cl)cc2)CC1
→ i | 2.5 | 10 | -2 | 0.71 | -1.4 | 2.4
CCOC(=O)C1CN(S(=O)(=O)c2ccc(OC)cc2)c2cc(CC(=O)OC)ccc2O1 (stereo unspecified)
→ . | -0.9 | 8 | -27 | 0.72 | -3.3 | 0.4
O=C(Nc1ccccc1N1CCOCC1)C1CCN(S(=O)(=O)c2ccc(Cl)cc2)CC1
→ i | 0.9 | -4 | -9 | 0.74 | 0.9 | 4.7
CC(=O)Nc1ccc(S(=O)(=O)NCC2CCC(C(=O)NCCc3ccccc3)CC2)cc1 (stereo unspecified)
→ i | 6.6 | 18 | -7 | 0.7 | 0.9 | -1.3

(next part)
Values in the order: FGF22 binding | LANA-H2B inh | B2AR ag | ALR H2O2 inh | Ecoli growth | HNF4A DNA FP | UCH37 inh
Cc1ccnc(NC(=O)C2CC(=O)N(c3ccc4c(c3)OCCO4)C2)c1 (stereo unspecified)
→ i | 6.2 | -6 | 0 | 0.69 | -0.2 | 1.2
CN(c1ccccc1)S(=O)(=O)c1cc(C(=O)N2CCN(c3ccccn3)CC2)ccc1Cl
→ . | -2.6 | 9 | -66 | 0.74 | 0.0 | 4.5
O=C(c1ccsc1)N1CCCC(N2CCN(c3cccc(C(F)(F)F)c3)CC2)C1 (stereo unspecified)
→ i | -0.2 | -7 | 0 | 0.72 | -1.8 | 2.7
O=C(Nc1ccc(Cl)cc1)NC1CCCCC1
→ . | -5.5 | -4 | -9 | 0.69 | 1.4 | 0.7
CCC(CC)C(=O)NCCc1cc2c(OC)ccc(OC)c2[nH]c1=O
→ . | -0.1 | -1 | . | 0.73 | -0.1 | -2.3

The list is partial (hit frequency here may not be typical).
